# Mtb growth = Confirmatory growth inhibition assay against Mycobacterium tuberculosis H37Rv, potency (AID 1949); most inactive calls were filed without a number and no value below 0 was filed; actives 1.6% (n = 100,000); one-dose inhibition, % at 10 µg/mL; IC50 in µg/mL for titrated hits;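 active means confirmed in a dose series; inconclusive means about 50% or more but not retested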;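 further: bacteria grown 7 days with compound before Alamar blue readout; 0% = untreated bacteria and 100% = reference antibiotic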
# The depositor's hits bear a star; i = inactive; ? = inconclusive. Not all compounds are listed; count on the stated rates, not on these rows.
no.	molecule	Mtb growth
1	Cc1cc(C)n2c(SCc3ccccc3Cl)nnc2n1	i
2	CCc1ccccc1NC(=S)N1N=CCC1c1ccccc1 (stereo not given)	i
3	Cc1ccc(OCCN2CCCC2)c([N+](=O)[O-])c1	i
4	CCN(CC)S(=O)(=O)c1cc(C(=O)Nc2nnc(COc3ccc(Cl)cc3)s2)ccc1Br	0%
5	Cc1cc(C)c(S(=O)(=O)N2CCN(c3ccccc3)CC2)cc1Br	9%
6	CCC(C)c1ccc(NC(=O)COc2ccc(C)cc2Br)cc1 (stereo not given)	i
7	Cc1cc(C(=O)NCC#N)ccc1[N+](=O)[O-]	1%
8	COC(=O)COc1ccc(S(=O)(=O)N2CCC(C)CC2)cc1Cl	14%
9	Cc1ccc(CN(CC(=O)Nc2ccccc2F)S(=O)(=O)c2ccccc2)cc1	i
10	COc1ccccc1N1CCN(CCOc2cc(C)ccc2C(C)C)CC1	3%
11	CCOc1ccc(N(CC(=O)NC(C(C)C)C(C)C)S(=O)(=O)c2ccc(OC)c(OC)c2)cc1	i
12	OC(CNCc1ccccc1)Cn1c2ccccc2c2ccccc21 (stereo not given)	39%
13	O=C(Nc1nc(-c2ccc(Br)cc2)cs1)c1ccc(-c2ccccc2[N+](=O)[O-])o1	i
14	Cc1nc(Nc2nc3ccccc3s2)[nH]c(=O)c1Cc1ccccc1	i
15	O=C(Nc1ccc(F)cc1)C1C2CC3OC(=O)C1C3C2 (stereo not given)	i
16	COc1ccc(NC(=S)NCCc2ccncc2)cc1	i
17	COc1cccc(C(=O)N(CCCCN2C(=O)c3ccccc3C2=O)c2ccc(Cl)cc2)c1	i
18	CS(=O)(=O)N(CC(=O)Nc1cccc(C(F)(F)F)c1)c1ccccc1Cl	i
19	COc1ccc(OCCCC(=O)Nc2ccccc2OC)cc1	i
20	N/C(=N\OS(=O)(=O)c1cc(Cl)ccc1Cl)c1ccncc1	i
21	COc1cc(C=O)ccc1OCCOCCOc1ccc(Br)cc1	i
22	O=C1CC(NCc2cccs2)C(=O)N1c1ccc(Cl)cc1 (stereo not given)	i
23	O=C(CCN1C(=O)c2ccccc2C1=O)Nc1ccncc1	i
24	CCC(C)c1ccc(NC(=O)CCCC(=O)O)cc1 (stereo not given)	i
25	O=C(CSc1ccc(Cl)cc1)Nc1ccc(N2CCCC2)cc1	i
26	N#Cc1cn(CC(=O)Nc2ccc(F)cc2)c2ccccc12	i
27	Nc1sc2c(c1C(=O)NCc1ccccc1)CCCC2	i
28	COc1ccc(OCC(=O)Nc2ccccc2C(=O)Nc2cccc(C)c2C)cc1	i
29	O=C(NCc1ccc(Cl)c(Cl)c1)C(Cl)Cl	11µg/mL*
30	c1ccc(CNc2nc(N3CCOCC3)nc3ccccc23)cc1	i
31	CCCSCC(=O)Nc1ccc(C)cc1C	0%
32	O=C(COc1ccc2ccccc2c1)N1CCN(C(=O)c2cccc(Cl)c2)CC1	i
33	NC(=O)c1c(NC(=O)c2cnccn2)sc2c1CCCCCC2	i
34	CCOc1ccccc1NC(=S)NCCc1ccc(F)cc1	i
35	CC1=C(C(=O)Nc2ccc(F)cc2)C(c2ccc(Cl)cc2)NC(=O)N1 (stereo not given)	i
36	CS(=O)(=O)N1CCC(C(=O)NC2CCCCC2)CC1	i
37	Nc1ccc(S(=O)(=O)Nc2nccc(/C=C/c3cccc(Br)c3)n2)cc1	i
38	COc1cc2c(cc1NC(=S)Nc1cc(C(F)(F)F)ccc1Cl)oc1ccccc12	0%
39	Cc1cc2ncn(C(=O)c3ccc(Cl)c(Cl)c3)c2cc1C	i
40	COc1cc(NC(=O)C2CC(=O)N(c3ccc(C)cc3)C2)c(OC)cc1NC(=O)c1ccccc1 (stereo not given)	i
41	CSc1ccc(C2NC(=S)NC(C)=C2C(=O)OCc2ccccc2)cc1 (stereo not given)	i
42	CC(=O)Nc1ccccc1C(=O)C(=O)O	i
43	CCn1c(SCc2nc3ccccc3[nH]2)nc2sc(C)c(C)c2c1=O	i
44	COC(=O)c1sc(NC(=O)COc2ccccc2F)nc1C	3%
45	COc1ccc(CN2C(=O)N(c3cccc(OC)c3)C(=O)C2CC(=O)Nc2ccc(OC)cc2)cc1 (stereo not given)	i
46	Cc1noc(C)c1C(=O)N1CCC(Cc2ccccc2)CC1	i
47	Cc1ccc(S(=O)(=O)N2CCC(C(=O)Nc3cc(Cl)ccc3Cl)CC2)cc1	i
48	COc1cc(OC)c(OC)cc1CN1CCN(C(=O)c2cccc(Cl)c2)CC1	4%
49	N#CC1=C(SCC(=O)Nc2ccccc2C(F)(F)F)NC(=O)CC1c1cccc([N+](=O)[O-])c1 (stereo not given)	2%
50	CC(=O)c1nc(N2C(=O)C3CC=C(C)CC3C2=O)sc1C (stereo not given)	i
51	Cc1nc2ccccc2n1C1CC(=O)N(Cc2ccccc2)C1=O (stereo not given)	i
52	CCN(CC)C(=O)NCC12CC3CC(CC(C3)C1)C2	i
53	CCC(C(=O)Nc1ccc(-c2nc3ccccc3o2)cc1)c1ccccc1 (stereo not given)	0%
54	CCSc1nnc(NC(=O)c2cc(S(=O)(=O)N3CCCCC3)ccc2Cl)s1	1%
55	Cc1cccc(NC(=O)COc2ccc(S(=O)(=O)NC3CCCCC3)cc2)c1	i
56	Cc1cc2ccccc2n2c(SCC(N)=O)nnc12	i
57	CCCC(=O)Nc1ccccc1NC(=O)CCC	4%
58	O=[N+]([O-])c1ccn(Cc2ccc(F)cc2)n1	i
59	Cc1cc(C)c(C#N)c(Nc2cccc(Cl)c2C)n1	i
60	COc1cccc2c1oc(=O)c1c(NC(C)=O)nc(-c3cccs3)nc12	3%

# Continuation:
no.	molecule	Mtb growth
61	CCC(=O)N1CCN(c2ccc([N+](=O)[O-])c(NC(C)C34CC5CC(CC(C5)C3)C4)c2)CC1 (stereo not given)	i
62	N#Cc1c(N2C(=O)c3ccc(C(=O)O)cc3C2=O)sc2c1CCCC2	i
63	Cc1cc(C)nc(NC(=O)c2ccc([N+](=O)[O-])o2)n1	5%
64	CC(C)c1ccc(C(=O)NC(=S)Nc2ccc(N3CCCC3)c(Cl)c2)cc1	2%
65	Clc1ccccc1CSc1ncnc2nc[nH]c12	i
66	O=C(NCCc1ccccc1)c1ccc(CNS(=O)(=O)c2cccc(Cl)c2)cc1	i
67	CC(=O)N(C)S(=O)(=O)c1ccc(C)cc1	i
68	CS(=O)(=O)N1CCC(C(=O)Nc2cccc(F)c2)CC1	i
69	CCOc1ccc(NC(=O)Nc2ccc(S(=O)(=O)NC)cc2)cc1	i
70	CCOc1ccnc2sc(C(=O)c3cccnc3)c(N)c12	1%
71	O=C(NC1CCCCCCC1)c1c(Cl)cccc1Cl	i
72	COC(=O)c1ccc(NC(=O)CCC(=O)c2ccc(C)cc2C)cc1	i
73	CC(=O)NCCc1ccc(S(=O)(=O)N2CCCC2C(=O)O)cc1 (stereo not given)	5%
74	Cc1cc(OCC(=O)Nc2ccc(S(=O)(=O)N(C)C)cc2)ccc1Cl	i
75	CCOC(=O)c1c(N)n(CCN2CCOCC2)c2nc3ccccc3nc12	i
76	Cc1nnc(SCC(=O)Nc2ccc(Cl)cc2Cl)s1	i
77	Nc1ccc(N2CCN(C(=O)c3cccs3)CC2)c(Cl)c1	2%
78	CCn1c(SCC(=O)Nc2ccccc2)nnc1-c1ccc(N)cc1	i
79	COc1ccc(Nc2nc(-c3ccncc3)nc3ccccc23)cc1	0%
80	Cc1ccc(-c2nn3c(C)nnc3s2)cc1N	i
81	COc1ccc(S(=O)(=O)Oc2cccc3ccc(C)nc23)c2ccccc12	i
82	O=C(CC1S/C(=N\N=C2CCCCCC2)NC1=O)Nc1ccc(I)cc1 (stereo not given)	i
83	N#Cc1cccc(NC(=O)COc2ccc3ccccc3c2Br)c1	i
84	CCOC(=O)c1c(NC(=O)CCc2ccccc2)sc2c1CC(C)(C)OC2	i
85	O=C(NCCN1CCOCC1)c1c(F)c(F)c(F)c(F)c1F	5%
86	O=C(NCCc1cccc(Cl)c1)c1ccc(-c2ccccc2)cc1	i
87	CCOC(=O)c1c(NC(=O)C#Cc2ccccc2)sc2c1CCCC2	i
88	CC(=O)Nc1ccc(N2CCN(C(=O)c3ccccc3C)CC2)cc1	i
89	C=CCn1c(CC(=O)Nc2ccc(OCC)cc2)nnc1SCC(=O)Nc1ccc(Cl)cc1	0%
90	Cc1nc(NC(=O)C2CC3CCCC(C2)C3=O)sc1C (stereo not given)	i
91	COC(=O)Cc1c(C)c2c(OC(C)=O)cc(C)cc2oc1=O	i
92	COc1ccc(/C=C/C(=O)Nc2cc(C)cc(C)c2)cc1	43%
93	O=C(NCCNC(=O)c1ccc(Cl)c(Cl)c1)c1ccc(Cl)c(Cl)c1	i
94	COC(=O)C1=CN(Cc2cccs2)C=C(C(=O)OC)C1c1cccc(Cl)c1	i
95	O=C(COc1ccc(Cl)cc1Cl)NC(=S)Nc1ccccc1C(=O)O	i
96	CN1CCN(c2nc(N3CCCc4ccccc43)nc(N3CCCc4ccccc43)n2)CC1	5.3µg/mL*
97	O=C(C1CCCC1)N1CCN(c2cccc(C(F)(F)F)c2)CC1	i
98	O=C(CS(=O)(=O)Cc1ccccc1)Nc1ccc(Br)cc1F	i
99	OCc1cc(Cl)c(OCc2ccc(Br)cc2)c(Cl)c1	9%
100	Cc1nnc(NC(=O)COc2ccc(-c3ccccc3)cc2Br)s1	i
101	Cc1ccc(CSCC(=O)Nc2ccc(Cl)c(Cl)c2)cc1	3.1µg/mL*
102	CC(C)(C)c1cc(NC(=O)C2CCCO2)no1 (stereo not given)	i
103	Cc1c(Cl)cccc1N(CC(=O)Nc1cccc(N(C)S(C)(=O)=O)c1)S(=O)(=O)c1ccccc1	i
104	O=S(=O)(/N=C(\Nc1ccc(-c2ccccc2)cc1)c1ccccc1)c1ccccc1	12%
105	CCc1ccc(OC(C)c2nnc(SCC(=O)Nc3nc4ccccc4s3)n2CC)cc1 (stereo not given)	1%
106	Cc1ccc(NC(=O)c2ccc(Cl)c(Cl)c2)cc1Cl	i
107	CCCc1c(C)c2c(C)[nH]nc2oc1=O	i
108	O=C(C1CCN(Cc2cccs2)CC1)N1CCCC1	3%
109	CC1CCC(N2CC(C(=O)O)CC2=O)CC1 (stereo not given)	i
110	CCOC(=O)c1cccc(NC(=O)c2sc3ccccc3c2Cl)c1	i
111	CS(=O)(=O)c1ccc2nc(NC(=O)C3CCCO3)sc2c1 (stereo not given)	i
112	CCc1c(O)n(-c2ccccc2)c(=S)[nH]c1=O	1%
113	CC(C)(C)C(=O)Nc1nc2c(Cl)c(Cl)ccc2s1	7µg/mL*
114	Nc1ccc(Sc2cccc(S(=O)(=O)c3cccc(Sc4ccc(N)cc4)c3)c2)cc1	5%
115	COc1ccc2oc(=O)c(C(=O)NC3CCCCC3C)cc2c1 (stereo not given)	?
116	O=C(NCC1CCCO1)c1cccc(NC(=O)c2cccc(Cl)c2)c1 (stereo not given)	i
117	Cc1cc(C)cc(NS(=O)(=O)c2ccc3oc(=O)ccc3c2)c1	i
118	COC(=O)c1cccc(NC(=O)CN(c2ccc(OC)c(OC)c2)S(C)(=O)=O)c1C	i
119	CCOC(=O)C1CCc2nc3ccccc3c(=O)n21 (stereo not given)	i
120	O=c1c(-c2ccc(Cl)cc2)c(C(F)(F)F)oc2c(CN3CCCC3)c(O)ccc12	i

# New compounds follow:
no.	molecule	Mtb growth
121	O=C(Cn1nnc(-c2ccccc2Cl)n1)NC1CCCC1	i
122	COc1ccccc1C(=O)N1CCN(Cc2cccc(Br)c2)CC1	i
123	COc1ccccc1CC(=O)N1CCN(C(c2ccccc2)c2ccccc2)CC1	4%
124	CCOC(=O)c1cc2ccccc2n1CCN(CC)CC	i
125	COC(=O)c1ccc(Cl)c(NC(=O)C(C)(C)Oc2ccc(Cl)cc2)c1	i
126	Cc1cc(Cl)c(OCCCn2cnc3ccccc3c2=O)c(Br)c1	8%
127	CCCOc1ccc(C(=O)Nc2ccccc2Br)cc1OC	i
128	CN(C)c1ccc(NC(=O)c2ccc(-c3ccccc3)cc2)cc1	i
129	C#CCn1c(-c2ccccc2Br)nc2ccccc21	0%
130	COc1cc(C2C3=C(CCCC3=O)N(C)C3=C2C(=O)CCC3)ccc1OCc1ccc(F)cc1	i
131	CC(Sc1ncn[nH]1)C(=O)Nc1ccc(Cl)cc1 (stereo not given)	i
132	O=C(Cc1cccc2ccccc12)c1ccc(O)cc1O	i
133	CCOC(=O)C1=C(c2ccccc2)Nc2ncnn2C1c1cccc(OC)c1OC (stereo not given)	i
134	CC(C)(C)c1ccc(C(=O)Nc2ccc(NC(=S)NC(=O)c3cccs3)cc2)cc1	0.46µg/mL*
135	Cc1cc(C)c(S(=O)(=O)N(C)CC(=O)Nc2cccc(C(F)(F)F)c2)c(C)c1	4%
136	S=C(c1cccc(Br)c1)N1CCOCC1	i
137	CCc1ccc(N2CCN(CC(=O)Nc3ccc(OC)cc3)CC2)cc1	i
138	Cc1ccc(-c2nnc3s/c(=C\c4ccc(C)o4)c(=O)n23)cc1	i
139	N#Cc1c(-c2ccccc2)nc(SCC(=O)NCc2ccco2)[nH]c1=O	i
140	CCCCOc1ccccc1NC(=O)c1ccccc1Br	3%
141	O=C(C1CCN(S(=O)(=O)c2cc(Cl)ccc2Cl)CC1)N1CCN(c2ccccc2)CC1	i
142	CC(=O)c1ccc(Nc2nc(=S)[nH]c3ccccc23)cc1	4%
